Bioassay records: PubChem BioAssay, National Center for Advancing Translational Sciences (NCATS)
gsp antag = antagonists of gsp mutant (McCune-Albright syndrome); gsp-mutant cells, cAMP HTRF, 30 min; control for the full effect not named in the record; Potency, µM (series often up to 76.9 µM), for inactives: top-dose activity change, negative = inhibition, usual class: inhibitors; 340,000 compounds, 0.4% hits; active = falling curve of any shape with a large fitted effect; inconclusive = falling curve, mostly with a smaller effect; inactive = flat or rising curve; cell line not stated here;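 note: intracellular cAMP measured with PDE inhibitor Ro 20-1724 present during compound exposure; potency is the fitted concentration of half-maximal effect; % is set by controls: 0 for no effect and ±100 for the full control effect; nearly all actives have a fitted effect of over 65% in size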
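Cells, 2000/well, grown 16–24 h in DMEM 10% FBS with 0.5 mg/ml G418, then compounds plus […] (300 uM addition stock), 30 min at 37C. cAMP read by HTRF (cAMP-d2 and anti-cAMP antibody-K in lysis buffer) after 30 min RT.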
Sfp inh = blocks B. subtilis Sfp PPTase activity | Q9F4F7 | Potency, µM, without a hit: max response, negative = inhibition, usual class: inhibitors | AID 1490 | 310,000 compounds, 3.5% hits | Biochemical Sfp PPTase activity, qHTS; active = well fitted inhibition curve with a large enough effect; inconclusive = small, poorly fitted or top-dose-only effect, or another doubt; inactive = no such curve, though single readings can be large or run the other way;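 note: the enzyme is Sfp with the accession as filed and its product quenches rhodamine fluorescence; potency is the fitted concentration of half-maximal effect; 0% = enzyme reaction without inhibitor and -100% = no enzyme wells; top concentration of the series not given in the record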
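Sfp 15 nM + cpd, 15 min RT; start w/ rhodamine-CoA 5 uM, BHQ-2-YbbR 12.5 uM (final); 50 mM Hepes pH 7.6, 10 mM MgCl2, 0.01% NP-40, 0.01% BSA; read 525/598 nm at 0 and 30 min.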
CtBP-E1A inh = CtBP/E1A binding inhibition; AlphaScreen GST-E1A/His-CtBP binding, 1536-well; active compounds read low; control for the full effect not named in the record; activity change, % (no concentration beside the values); 340,000 compounds, 0.49% hits; in the data active means activity change below about -65%; inconclusive means about -30% to -65%; inactive means above about -30%; note: % is set by controls: 0 for no effect and ±100 for the full control effect
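In 5 uL wells, 23 nL compound meets equimolar GST-E1A and His-CtBP (5X stock 125 nM each) for 2 h, 37 °C. Beads (5X, 50 ug/mL) then 1 h, 37 °C, dark.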
Menin MLL FP FL = displaces fluorescein MLL peptide from human menin | Fluorescence polarization, fluorescein-MLL peptide displacement from menin | FP activity change, % at 61.4 µM | 290,000 tested, under 10 active; inconclusive = falling polarisation curve, or a change in total fluorescence; inactive = total fluorescence flat and polarisation flat or rising; no compound was filed as active; the % refers to the polarisation; negative = inhibition;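 note: % of control where 0% means no effect; inhibitors lower the polarisation; unlabelled MLL peptide was the positive control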
gsp ag = activates gsp, the McCune-Albright syndrome mutation. gsp mutant cells, cAMP HTRF, 30 min; control for the full effect not named in the record. 340,000 compounds, 0.13% hits. Potency, µM (titrated, usually from 76.9 µM), without a hit: top-dose activation (cAMP increase), actives largely listed as activators; active = well fitted activation curve with a large enough effect; inconclusive = small, poorly fitted or top-dose-only effect, or another doubt; inactive = no such curve, though single readings can be large or run the other way; cell line not stated here;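 note: phosphodiesterase inhibitor Ro 20-1724 added with compounds to block cAMP breakdown; potency is the fitted concentration of half-maximal effect; nearly all actives have a fitted effect of over 60% in size; about a fifth of the inactives were tested at one dose only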
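Cells stably selected in G418 were plated at 2000/well, grown 16-24 hr, then given compounds in DMSO with the PDE inhibitor […] (300 uM solution added) for 30 min at 37C; cAMP was read by HTRF.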
ClpP mod = qHTS Assay for Activators of ClpP; 340,000 compounds, 1.9% hits; ATP-dependent Clp protease proteolytic subunit (Bacillus subtilis (strain 168)), P80244; AID 651965, 2013; purified B. subtilis ClpP, FRET peptide cleavage, 20 min; Potency, µM (highest dose often 57.5 µM), for inactives: at the highest dose activity change, negative = active; active = well fitted falling curve with a large enough effect; inconclusive = small, poorly fitted or top-dose-only effect; inactive = no such curve, though single readings can be large or run the other way; note: potency is the fitted concentration of half-maximal effect; the source files actives as falling curves though it sought activators and does not explain the sign; nearly all actives have a fitted effect of over 65% in size; many hits overshoot -100%
Target sequence (P80244 whole entry, looked up): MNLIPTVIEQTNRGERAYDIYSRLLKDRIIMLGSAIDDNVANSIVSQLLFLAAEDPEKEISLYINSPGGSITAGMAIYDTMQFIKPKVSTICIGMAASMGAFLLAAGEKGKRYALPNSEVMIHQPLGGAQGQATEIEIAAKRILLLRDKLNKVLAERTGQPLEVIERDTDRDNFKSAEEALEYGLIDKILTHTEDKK
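FRET quenching reversal measured ClpP activation: 10 microg/mL B. subtilis ClpP at pH 8 with the FRET-FV decapeptide, read at 430 nm after 320 nm excitation. The 20-min minus 0-min signal was scaled between DMSO/no-enzyme wells and ADEP (5.8 microM final).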
TRPV1 potentiator = enhances activation of the human vanilloid receptor TRPV1 | potentiation, % at 8.33 µM | TRPV1-expressing cells, Fluo-8 calcium influx, capsaicin EC20 potentiation; host cell line not named in the record; control for the full effect not named in the record | Q8NER1 | 320,000 compounds, 0.02% hits; active means potentiation above 80%; inconclusive means 30% to 80%; inactive means below 30%; note: 0% is about no effect
Target sequence (Q8NER1 whole entry, looked up): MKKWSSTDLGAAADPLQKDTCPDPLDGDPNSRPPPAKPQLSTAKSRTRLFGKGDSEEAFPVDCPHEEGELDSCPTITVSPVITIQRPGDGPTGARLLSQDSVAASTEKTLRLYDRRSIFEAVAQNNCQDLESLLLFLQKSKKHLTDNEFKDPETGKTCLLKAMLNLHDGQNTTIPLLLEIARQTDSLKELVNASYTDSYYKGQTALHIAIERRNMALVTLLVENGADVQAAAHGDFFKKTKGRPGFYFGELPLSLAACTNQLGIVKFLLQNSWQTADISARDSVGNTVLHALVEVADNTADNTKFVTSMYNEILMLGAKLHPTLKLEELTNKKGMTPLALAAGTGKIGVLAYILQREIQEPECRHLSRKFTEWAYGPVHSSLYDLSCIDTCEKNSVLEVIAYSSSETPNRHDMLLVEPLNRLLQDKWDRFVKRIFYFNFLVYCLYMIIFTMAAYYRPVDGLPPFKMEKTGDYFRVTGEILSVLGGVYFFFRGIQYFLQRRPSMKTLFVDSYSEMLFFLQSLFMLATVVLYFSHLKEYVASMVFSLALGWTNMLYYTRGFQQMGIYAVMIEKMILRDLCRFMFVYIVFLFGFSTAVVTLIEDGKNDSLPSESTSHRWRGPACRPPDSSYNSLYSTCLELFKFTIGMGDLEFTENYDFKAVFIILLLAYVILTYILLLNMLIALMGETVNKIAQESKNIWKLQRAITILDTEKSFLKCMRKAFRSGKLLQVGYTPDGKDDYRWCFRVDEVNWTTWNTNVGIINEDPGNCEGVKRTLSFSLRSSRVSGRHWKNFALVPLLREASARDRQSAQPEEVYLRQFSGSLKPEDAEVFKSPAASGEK
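TRPV1-expressing cells were cultured overnight at 35.5C and loaded with Fluo-8 calcium dye for 40 to 90 min at room temperature. After a 10 s baseline, compound was added and calcium influx was read kinetically for 3 min (ex 480/em 520 nm).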
An asterisk follows results filed as active; u = inconclusive; x = not tested or not shown; & = joins results of further samples; [ ] = dose if it differs, or a comment.

SMILES	gsp antag	Sfp inh	CtBP-E1A inh	Menin MLL FP FL	gsp ag	ClpP mod	TRPV1 potentiator
O=C(CC1C(=O)NCCN1Cc1ccccc1C(F)(F)F)NC1CCC1 (stereo not given)	9%	-7%	-5	x	-3%	-7.0%	-7
CC(=O)Nc1nc(CCC(C)C)cc2c1c(=O)oc1ccccc12	1%	12%	2	8.1	-28%	u	4
Cn1c(=O)c2c(ncn2CC(=O)OCC(=O)NC(c2ccccc2)c2ccccc2)n(C)c1=O	21%	3%	-16	1.0	6%	-1.6%	-4
CCOC(=O)N1CCN(C(=O)C2CCCN(S(=O)(=O)c3c(C)cc(C)cc3C)C2)CC1 (stereo not given)	-4%	15%	-25	-1.6	-15%	-0.9%	-16
CN(CC1CCN(CCc2cccc(C(F)(F)F)c2)CC1)C(=O)c1ccccc1	-4%	12%	2	1.6	1%	-0.6%	5
CC(=O)c1ccc(S(=O)(=O)N2CCN(C)CC2)cc1	11%	8%	-16	-2.7	-15%	x	1
CCc1c(C)nc2ncnn2c1N1CCCC(C(=O)Nc2cc(F)ccc2C)C1 (stereo not given)	5%	10%	-2	4.3	u	-2.1%	4
O=C(C1CC(=O)N(c2ccc(F)c(Cl)c2)C1)N1CCOCC1 (stereo not given)	x	x	5	x	-16%	-0.9%	x
Cc1ccc(NC(=O)C2=CC=CN3CCS(=O)(=O)N=C23)cc1	-6%	x	2	x	16%	0.5%	15
O=C(Nc1cccc2cccnc12)c1ccc(Br)o1	-5%	-22%	2	-1.6	-4%	-0.6%	-8
COc1ccc(CCNS(=O)(=O)c2ccc3c(c2)NC(=O)CCS3)cc1OC	17%	12%	23	x	35%	-3.5%	11
COc1ccccc1OCC(=O)N1CCCC(Nc2ccc(C)c(C)c2)C1 (stereo not given)	1%	3%	0	x	3%	-3.2%	0
CCCCC(=O)N/N=C(/C)C1=C(C)C(C)(C)OC1=O	11%	16%	x	3.8	-52%[inhibitor]	-1.9%	3
COc1ccc(S(=O)(=O)Nc2cc3c4c(c2)CCC(=O)N4CCC3)cc1C	-7%	x	7	x	3%	-1.4%	3
CCc1ccc(OCCCC(=O)Nc2ccc(N3CCOCC3)cc2)cc1	-5%	3%	x	-1.5	4%	-0.5%	-1
CCn1c2ccccc2c2cc(NC(=O)CNC)ccc21	4%	u	-3	4.3	-14%	x	1
CC(C)CN(C(=O)COC(=O)Cn1cnc2ccccc2c1=O)C1CCS(=O)(=O)C1 (stereo not given)	20%	8%	-3	1.0	0%	-12%	17
Clc1ccc(Cl)c(-c2ccc(/C=N/c3ncn[nH]3)o2)c1	16%	-3%	2	-0.2	u	-5.0%	14
Cc1ccc(C(=O)C(C)OC(=O)Cn2[nH]c(=O)c3ccccc3c2=O)cc1 (stereo not given)	2%	16%	-3	x	0%	7.5%	-3
Cc1ccc(CCC2C3=C(CCCC3=O)OC3=C2C(=O)CCC3)cc1	-10%	2%	4	0.9	6%	0.1%	-13

7 compounds from above, reduced to CtBP-E1A inh:
mol,CtBP-E1A inh
CC(=O)c1ccc(S(=O)(=O)N2CCN(C)CC2)cc1,-16
CCc1c(C)nc2ncnn2c1N1CCCC(C(=O)Nc2cc(F)ccc2C)C1 (stereo not given),-2
O=C(C1CC(=O)N(c2ccc(F)c(Cl)c2)C1)N1CCOCC1 (stereo not given),5
Cc1ccc(NC(=O)C2=CC=CN3CCS(=O)(=O)N=C23)cc1,2
O=C(Nc1cccc2cccnc12)c1ccc(Br)o1,2
COc1ccc(CCNS(=O)(=O)c2ccc3c(c2)NC(=O)CCS3)cc1OC,23
COc1ccccc1OCC(=O)N1CCCC(Nc2ccc(C)c(C)c2)C1 (stereo not given),0

Copied from the list:
gsp ag, COc1ccc(CCNS(=O)(=O)c2ccc3c(c2)NC(=O)CCS3)cc1OC reads 35%
gsp ag, O=C(C1CC(=O)N(c2ccc(F)c(Cl)c2)C1)N1CCOCC1 (stereo not given) reads -16%

Carrying on.
SMILES	gsp antag	Sfp inh	CtBP-E1A inh	Menin MLL FP FL	gsp ag	ClpP mod	TRPV1 potentiator
O=C(Nc1ccccc1Oc1ccsc1C(=O)O)c1ccccc1	-7%	18%	x	-0.3	3%	-0.3%	5
CCn1c(COc2cccc3ccccc23)nnc1SCC(N)=O	-4%	11%	0	1.2	-6%	-2.8%	4
CC(=O)Nc1cc2nn(-c3ccccc3)nc2cc1C	-4%	-1%	x	-2.5	1%	4.6%	1
O=c1c(C=NCCCO)c(-c2ccccc2)[nH]n1-c1nc2ccccc2s1	u	11%	x	0.6	21%	0.7%	-3
COC(=O)c1c(C)nc(C)c(C(=O)OC)c1-c1cccs1	5%	-19%	-2	-1.3	-3%[15.4 µM]	x	-7
CC(=O)NC(Cc1c[nH]c2ccccc12)C(=O)OCC(=O)Nc1cc(C)on1 (stereo not given)	10%	16%	1	1.7	-31%[inhibitor]	-1.2%	18
CC(=O)N1CCCc2cc(S(=O)(=O)N3CCCC(C(=O)NCc4ccccc4)C3)ccc21 (stereo not given)	-15%	7%	39	-8.6	18%	0.4%&0.2%	-1
O=C(N/N=C\C=C\c1ccc([N+](=O)[O-])o1)c1cccs1	-8%	-11%	-8	u	-29%	x	2
N#Cc1nc(COc2ccc(Cl)cc2)oc1NCc1ccc2c(c1)OCO2	0%	16%	-14	4.9	1%	-0.5%	-1
COC(=O)C1=C(C(=O)OC)[C@@H]2N(C)c3ccccc3[C@@]23C[C@@H](C(=O)OC)N(C(=O)CC(C)C)C3=N1	-16%	u	x	-2.7[11.7 µM]	-51%[inhibitor]	0.7%	-41
CCC(=O)N1CCN(c2ccccc2NC(=O)COc2ccc(C(C)C)cc2)CC1	u	-9%	-12	x	10%	1.9%	-27
COc1ccccc1CNC(=O)[C@H](C)NC(=O)C1CCN(C(=O)[C@H](CCSC)NC(=O)OC(C)(C)C)CC1	1%	11%	8	4.3	x	0.0%	2
Cc1ccc(NC(=O)C2CCN(c3nc(C)cc(C)n3)CC2)cc1	1%	18%	-16	3.8	28%	u	-11
COc1ccc(OC)c(CCNC(=O)Cn2cccc2C(=O)c2ccccc2)c1	-5%	22%	-24	-0.7	8%	-2.4%	8
Oc1ccccc1N=Cc1c(O)ccc2oc3c(c12)CCCC3	-5%	-6%	5	u	1%	-0.3%	6
O=C(NC1CCN(C(=O)C2CCCCC2)CC1)c1ccccc1	12%	16%	-1	6.8	-21%	x	1
CC1=C(C(N)=O)C(c2ccco2)C(C(N)=O)=C(C)N1	6%	u	1	3.4	-15%	-6.8%	20
Cc1ccccc1-n1ncc2c1CC(C)(C)CC2NC(=O)c1cn[nH]c1C (stereo not given)	-6%	17%	1	x	u	-0.8%	-11
Cc1cc(C)c2c(n1)sc1c(=O)n(-c3ccccc3)c(=O)[nH]c12	-12%	5%	1	1.4	-1%[15.4 µM]	0.7%	2
Cc1cc(=O)n2nc(N3CCCC(C(=O)NCc4ccccc4)C3)sc2n1 (stereo not given)	-1%	5%	0	-5.3	u	-0.9%	-9
Cc1ccc(CNc2nc(N)c([N+](=O)[O-])c(Nc3ccc(F)cc3)n2)cc1	7%	9%	-1	2.7	16%	-1.1%	-9
CCCC(=O)c1cc(F)c(N2CCOCC2)cc1C	5%	6%	10	-1.9	-7%	-0.2%	-1
COc1ccc(CCNC(=O)COC(=O)/C=C/c2ccc(OC)c(OC)c2)cc1	-13%	3%	u	1.0	-4%	u	2
CCN1CCC(C(N)=O)CC1	8%	13%	6	-0.6	-1%	-0.7%	-3
O=C(CNC(=O)N1CC(=O)Nc2ccccc21)NCc1ccc(Cl)cc1	9%	6%	3	-1.2	-28%	-1.3%	5
Cc1cc(=O)oc(C)c1C(=O)NC1CCCCCCC1	0%	2%	-13	-1.8	-4%[15.4 µM]	x	-4
CC(=O)c1sc(NC(=O)c2cccnc2Cl)nc1C	-12%	8%	7	1.1	12%	-1.4%	1
Cc1ccc2oc(=O)c3cnn(CC(=O)N4CCN(c5ccccc5)CC4)c3c2c1	-7%	-1%	4	2.1	3%	-2.5%&-0.3%	-2
CCOC(=O)c1ccc(NC(=O)CCS(=O)(=O)c2cccc3nonc23)cc1	-6%	8%	-4	-4.3	2%[15.4 µM]	x	-12
COc1ccc(OC)c(NC(=O)Nc2nnc(N3CCCCC3C)s2)c1 (stereo not given)	u	-17%	-15	-0.5	0%	-1.1%	6
COc1cc2c3c(cccc3c1)C(=O)N(CCN1CCCC1)C2=O	x	x	2	x	4%	4.0%	x
O=C(O)CCCCCNS(=O)(=O)c1ccc(Cl)cc1	5%	10%	-15	-0.6	-23%	0.9%	-1
COc1ccc(NC(=O)c2nc(C)c(C3(C)CC(c4cccnc4)=NO3)s2)cc1 (stereo not given)	2%	-4%	-2	2.1	x	0.1%	4
COc1ccc(S(=O)(=O)NCc2cccnc2)cc1NC(=O)c1ccccc1C	-4%	x	2	x	18%[15.4 µM]	x	x
Cc1c(C(=O)NCc2cccnc2)oc2ccccc12	12%	18%	4	4.1	14%	-5.8%	u
[O-][n+]1ccc(CC(O)(C(F)(F)F)C(F)(F)F)cc1	x	x	-8	x	-51%[inhibitor]	-2.2%	x
Cn1c(=O)c2c(nc(CN3CCC(Cc4ccccc4)CC3)n2CCN2CCOCC2)n(C)c1=O	-4%	-6%	3	0.7	25%	-0.6%	3
COc1ccc(CNC(=O)c2ccccc2SCC(=O)N2CCCC2)cc1OC	10%	x	-6	x	-20%[15.4 µM]	x	-12
COc1cccc(C2N(c3cccc(Cl)c3)C(=O)C3CCCN32)c1 (stereo not given)	-5%	-9%	3	3.1	u	1.5%	4
CC1CCC(NCc2ccco2)CC1 (stereo not given)	2%	8%	-1	1.8	-9%	-3.0%	-2
CCN(CC)S(=O)(=O)c1cccc(N2CC(O)=C(c3ccccc3)C2=N)c1	-12%	17%	-2	-1.0	18%[15.4 µM]	x	0

Not a hit list; about 5.3% have a hit in one of these screens.
